Assay outcomes: PubChem, several laboratories
UUG fidelity: yeast start codon fidelity modulation; hit rate 0.13% among 350,000; S. cerevisiae UUG-firefly luciferase reporter, luminescence/redox ratio; activity score, % at 18.7 µM;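 active means replicate mean at a twofold rise or more, about +100% in these data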;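 further: firefly luciferase made from a UUG start codon reports start codon fidelity; reporter light over untreated wells divided by growth signal over untreated wells; some hits fall short of that in this replicate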
MT1-MMP act inh: MT1-MMP (human) activation inhibition; GFP/RFP ratio change, % at 20 µM; HT1080 RFP-PRO-GFP cells, GFP/RFP ratio fluorescence, overnight; percent of plate control window, DMSO zero; AID 651647; hit rate 0.061% among 360,000;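 active means GFP/RFP ratio change of at least 30% with cell ATP level not reduced by more than half and red fluorescence within 50% of control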; further: strong numbers were not always called active
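Read-out: GFP/RFP fluorescence ratio; Test system: RFP-PRO-GFP reporter HT1080 cells; Compound dosing: single-point 20 µM compound, 1% DMSO; Times: overnight compound exposure at 37 °C.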
PABP polyA inh: PABP-poly(A) binding inhibition. P11940. PABP-poly(A) RNA binding, fluorescence polarization. inhibition, % at 35 µM. hit rate 1% among 290,000;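 active means 50% or more with normal probe brightness, or confirmed in later tests; inconclusive means above 50% with abnormal brightness, or retests that disagree; inactive means below 50% or failed in later tests; about a fifth of its hits are not listed in these tables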;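 further: calls also rest on retests at 20 µM and on dose response follow-up; controls were probe without protein and protein plus probe with vehicle; some compounds called inactive have numbers as strong as hits; many hits fall short of the cut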
Target sequence (P11940 whole entry, looked up): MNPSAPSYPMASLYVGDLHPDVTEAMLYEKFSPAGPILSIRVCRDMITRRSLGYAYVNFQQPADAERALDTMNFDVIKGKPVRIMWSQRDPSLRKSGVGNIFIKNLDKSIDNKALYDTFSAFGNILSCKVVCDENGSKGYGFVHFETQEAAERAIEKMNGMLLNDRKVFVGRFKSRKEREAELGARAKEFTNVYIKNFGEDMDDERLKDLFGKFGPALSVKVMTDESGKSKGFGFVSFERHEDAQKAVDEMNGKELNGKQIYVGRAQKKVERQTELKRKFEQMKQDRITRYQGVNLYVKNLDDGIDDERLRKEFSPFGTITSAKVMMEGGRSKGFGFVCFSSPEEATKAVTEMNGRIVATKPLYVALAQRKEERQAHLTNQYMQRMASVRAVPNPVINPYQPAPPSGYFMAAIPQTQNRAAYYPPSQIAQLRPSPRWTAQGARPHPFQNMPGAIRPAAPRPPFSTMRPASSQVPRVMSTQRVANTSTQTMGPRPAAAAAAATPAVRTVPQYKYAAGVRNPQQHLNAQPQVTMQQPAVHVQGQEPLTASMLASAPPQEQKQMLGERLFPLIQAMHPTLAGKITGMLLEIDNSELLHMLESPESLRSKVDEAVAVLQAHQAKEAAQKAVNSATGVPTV
eIF4H FP inh: inhibitors of RNA binding by human eIF4H. inhibition, % at 35 µM. eIF4H fluorescence polarization binding assay. hit rate 0.94% among 290,000. Q15056;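 active means 50% or more with normal probe brightness, or confirmed in later tests; inconclusive means above 50% with abnormal brightness, or retests that disagree; inactive means below 50% or failed in later tests; about a fifth of its hits are not listed in these tables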;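 further: calls also rest on retests at 20 µM and on dose response follow-up; 0% = protein and probe with vehicle and 100% = probe without protein; strong numbers were not always called active; many hits fall short of the cut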
CSC inhib: blocks cancer stem cells | cancer stem cell-like cells viability, luminescence | inhibition, % at 7.5 µM | hit rate 1.1% among 300,000;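 active means mean at 75% or more and at least half the replicates too; inconclusive means mean and replicates disagree; tested in HMLE shEcad cells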;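 further: 0% = median of negative and 100% = median of positive control wells; the first replicate is given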
Rce1 inh: inhibitors of yeast Ras-converting enzyme | Q03530 | yeast membranes, quenched prenylated peptide cleavage fluorescence | calls only | hit rate 0.27% among 290,000 | AID 2563;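 active means fall in fluorescence gain of 50% or more versus controls, with final raw signal at or below 3038400; inconclusive means same 50% fall but final raw signal above 3038400; inactive means fall in fluorescence gain under 50%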;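 further: plate controls were neutral control wells for no effect and wells lacking membranes for full effect; tested at 10 µM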
Env fusion inh: HIV envelope-mediated fusion inhibition; HeLa-JRFL Env/CEM21 cell fusion, luciferase; inhibition, % at 12.3 µM; hit rate 1.1% among 360,000;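 active means mean replicate inhibition score of at least 50 and every replicate individually at or above 50; inconclusive means only one of the two criteria met; inactive means mean below 50 and not all replicates reaching 50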;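 further: 0% = plate neutral controls and 100% = maraviroc near 300 nM; one replicate is shown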
eIF4H FP inh retest: recorded beside eIF4H FP inh, whose call it bears; inhibition, %; compound at 20 µM; confirmation average;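 mean of two retest wells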
PABP polyA inh retest: further read-out of PABP polyA inh, marked with its call; inhibition, %; compound at 20 µM; confirmation repeats;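 mean of two retest wells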
MT1-MMP act inh RFP: second read-out of MT1-MMP act inh, no call of its own (marks repeat the call); RFP signal change, %; measured here: RFP expression control read;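 0 = vehicle wells; hits needed this value within 50% of zero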
* marks the source's active call; other numbers are inactive results; i = inactive; ? = inconclusive; nt = no result given; + = active, no number.

SMILES | UUG fidelity | MT1-MMP act inh | MT1-MMP act inh RFP | PABP polyA inh | eIF4H FP inh | CSC inhib | Rce1 inh | Env fusion inh | others
COc1ccc(CNCc2cccc(Oc3ccccc3)c2)cc1 | -11.3 | -0.1 | -3.9 | 5.8 | -3.3 | 12.5 | i | 25.6
Cc1cc(N)nc(SCC(=O)N2C(C)CCCC2C)n1 (centres undefined) | -10.7 | 0.3 | -0.1 | -7.2 | -3.6 | -16.5 | i | 2.4
C[C@H]([C@H](O)c1ccccc1)N(C)C(=O)CN | -3.5 | 8.4 | 1.0 | 5.7 | 3.2 | -12.5 | i | -0.1
COc1ccccc1CC(=O)Nc1ccc(S(=O)(=O)N2CC(C)CC(C)C2)cc1 (centres undefined) | -8.3 | 1.6 | -1.2 | nt | nt | 11.9 | nt | nt
CCCn1c(SCC(=O)Nc2cc(S(=O)(=O)N3CCOCC3)ccc2Cl)n[nH]c1=O | 1.1 | 0.5 | -2.3 | 79.7 | 5.3 | -7.7 | i | -27.0 | eIF4H FP inh retest=7.6;PABP polyA inh retest=35.4
Cc1nn2c(-c3ccco3)nnc2c2ccccc12 | 11.4 | 2.1 | -0.2 | 35.8 | -0.2 | -8.3 | i | -103.6
Cc1cc(NCCO)c2ccccc2n1 | -9.2 | 5.7 | 0.8 | 8.7 | 1.1 | -7.0 | i | 0.6
O=C(NCCN1C(=O)S/C(=C\c2cccs2)C1=O)c1ccc(=O)[nH]c1 | nt | nt | nt | 5.0 | 3.8 | -4.6 | i | nt
COc1ccc(OC)c(NC(=O)CSc2ccc3ccccc3c2)c1 | -18.5 | 7.9 | -7.2 | 1.3 | 0.8 | -6.9 | i | nt
O=C(CSc1nnc(Cn2nnc3ccccc32)o1)Nc1cccc(Cl)c1 | -13.7 | 3.8 | 3.9 | 1.4 | -2.5 | 1.8 | i | 0.5
Cc1ccccc1N1C(=O)C2ON(c3ccccc3)C(c3ccco3)C2C1=O (centres undefined) | nt | -3.8 | 0.5 | 9.6 | 2.9 | -7.6 | i | 6.6
COC(=O)CCC/C=C1/SCC(NC(=O)c2ccccc2)/C1=N/O (centres undefined) | nt | -1.9 | -2.8 | 0.3 | 2.7 | -8.9 | i | 2.5
CCC(=O)Nc1cc(C(=O)OC(C(=O)c2ccc(C)c(C)c2)c2ccccc2)ccc1C (centres undefined) | -3.4 | -1.6 | -2.3 | -0.4 | -0.5 | 3.0 | i | -58.4
O=C(Nc1ccc([N+](=O)[O-])cc1)C1CC12CCC2 (centres undefined) | -8.9 | -5.0 | -1.5 | 0.5 | -11.2 | 1.8 | i | 3.2
CC1(C)C2CCC1(C(=O)O)c1nc3ccccc3nc12 (centres undefined) | 1.3 | 0.7 | -0.8 | -0.2 | -12.1 | -3.1 | i | -7.3
COc1cc2oc(=O)cc(CN3CCN(c4ccccc4F)CC3)c2cc1Cl | -23.2 | 0.1 | -1.0 | nt | nt | nt | nt | -5.3
CO/N=C/C(=N\Nc1ccc(OC)cc1)C(=O)c1ccc(F)cc1 | nt | -1.9 | -1.3 | 4.9 | -6.5 | 25.6 | i | 3.8
CC(C)C[C@H]1CNC(=S)N1C[C@H]1CCCN1C[C@H](Cc1ccc(O)cc1)N1C[C@H](Cc2ccc(O)cc2)N(CC2CCCCC2)C1=S | -2.6 | -9.4 | -11.6 | nt | nt | nt | nt | 14.7
Cc1nc2nc[nH]n2c(=O)c1NC(=O)c1cccc(OCC(C)C)c1 | -19.3 | 3.3 | 2.2 | 5.6 | 2.8 | nt | i | nt
CCn1c(SCC(=O)Nc2ccccc2C)nnc1-c1ccccc1O | -13.0 | -1.1 | 0.5 | -9.6 | -7.7 | 4.3 | i | 3.3
Cn1nnc(NC(=O)CSc2nnnn2-c2ccc(F)cc2)n1 | -9.0 | 8.9 | 6.0 | -4.0 | -2.9 | -18.0 | i | -0.1
CCCN1CCN(CCCNC(=O)C2CCCN(c3nnc(-n4cccc4)s3)C2)CC1 (centres undefined) | -9.4 | -4.5 | 1.6 | 5.9 | -0.1 | -4.4 | i | nt
COc1ccccc1CC(=O)Nc1ccccc1O | -11.6 | 7.2 | 0.7 | 2.6 | 8.4 | -3.5 | i | -8.4
Cc1c(CN2CCCC(C(=O)c3cccc(Cl)c3)C2)c(=O)n(-c2ccccc2)n1C (centres undefined) | -2.1 | -2.7 | 0.5 | -7.7 | -7.0 | 5.3 | nt | 6.6
CCCC(=O)Nc1ccc(Sc2ccc([N+](=O)[O-])cc2)cc1 | -19.6 | -1.2 | -11.5 | -8.9 | -13.3 | 23.9 | i | nt
COc1ccccc1-c1nnc(NC(=O)c2ccc(S(=O)(=O)N(C)CC3CCCO3)cc2)o1 (centres undefined) | -28.2 | -9.2 | 3.4 | 7.9 | 4.9 | -5.8 | i | 14.2
CCOc1ccccc1C(=O)OCC(=O)Nc1ccc(OC(F)F)cc1 | -13.3 | 2.3 | 2.5 | 8.0 | -3.9 | -8.6 | i | -55.6
CCNc1nc(NC(C)C)nc(NC(C)(C)C)n1 | nt | -2.8 | -10.1 | 1.7 | -4.9 | -0.4 | i | 15.3
COc1ccc(-c2c(C)oc3c(CN4CCN(C)CC4)c(O)ccc3c2=O)cc1 | -26.1 | 3.0 | 4.5 | 1.2 | 5.5 | -16.6 | + | -3.3
CC(=O)NC(CC(C)C)C(=O)NC(=O)NCc1ccccc1 (centres undefined) | -11.4 | 1.6 | 7.3 | -1.5 | -13.9 | 0.5 | i | -16.6
CC(=O)Cn1nnc2sc3c(c2c1=O)CCC(C(C)(C)C)C3 (centres undefined) | nt | -1.6 | -6.3 | -1.0 | 8.8 | nt | i | -28.8
CC1CCN(C(=O)C2CC(c3ccc(F)cc3)=NO2)CC1 (centres undefined) | -15.6 | -1.9 | 3.2 | -0.3 | 3.4 | 2.2 | i | nt
CC1CCCCC1NS(=O)(=O)c1ccc(S(=O)(=O)N2CCCC2)cc1 (centres undefined) | -4.6 | 9.4 | -3.6 | -0.6 | -8.3 | -3.0 | i | 1.5
CC(=O)c1c(O)c(C)c(O)c2c1OC1=CC(=O)C(C(C)=O)C(=O)[C@@]12C (some centres undefined) | 17.9 | -4.0 | 7.4 | 37.5 | 61.3 | nt | i | -19.8 | eIF4H FP inh retest=-8.9;PABP polyA inh retest=3.3
CCC(C)NS(=O)(=O)c1cc2c3c(c1)CCC(=O)N3CCC2 (centres undefined) | -13.7 | 0.0 | -1.0 | 8.1 | 3.0 | 7.2 | i | 3.0
CCCCCCc1cc2cc(C(=O)NCc3ccccc3)c(=N)oc2cc1O | -15.2 | -58.5 | -6.4 | -4.8 | 8.4 | 27.0 | nt | -42.5
FC(F)(F)c1cc(-c2ccccc2)nc(NCc2cccnc2)n1 | -14.7 | -12.2 | -10.5 | 0.7 | -7.3 | 0.9 | i | -70.4
Cc1ncoc1C(=O)N1CCc2c([nH]c3ccccc23)C1C1CCCCC1 (centres undefined) | nt | -2.3 | -0.6 | -1.9 | -5.2 | -7.5 | i | -18.0
O=C(NCCCn1ccnc1)Nc1cccc2ccccc12 | -15.4 | 2.8 | 4.6 | 3.1 | 0.5 | nt | nt | nt
COc1ccc(NC(=O)NCc2ccc3c(c2)OCO3)cc1 | nt | nt | nt | 3.6 | -4.6 | nt | i | 13.1
Cc1cc(OCC(O)CN)ccc1Cl (centres undefined) | nt | 0.1 | 8.0 | 80.8 | -1.8 | -14.5 | i | -9.0 | eIF4H FP inh retest=-8.9;PABP polyA inh retest=9.4
O=C(COC(=O)c1cccc(S(=O)(=O)N2CCOCC2)c1)NC1CCCCC1 | -8.1 | 2.7 | 4.8 | nt | nt | nt | nt | -8.6
C/C(=N\NC(=O)CC(C)C)c1ccc(N2CCCCC2)cc1 | -5.8 | 2.6 | 7.4 | -9.1 | 1.6 | 1.4 | i | nt
CCSc1nnc(NC(=O)c2c(C)noc2C)s1 | -11.3 | 0.8 | -2.6 | 14.1 | 0.6 | -2.3 | i | 13.8
CSc1ncccc1C(=O)OCC(=O)NC1CCCCC1 | 20.0 | 8.6 | 1.9 | nt | nt | nt | nt | 8.3
O=C(Nc1ccc2c(c1)C(=O)NC2=O)c1ccc(S(=O)(=O)N2CCCC2)cc1 | -2.3 | 1.9 | 5.5 | -0.9 | -0.2 | 17.5 | i | -2.0
S=C(NN=C1CCCCCC1)Nc1ccc(Cl)cc1 | nt | 1.9 | 0.0 | 1.7 | -5.7 | 2.1 | i | nt
COC(=O)CCC(=O)OC1(C)C(=O)C=C2C=C(C3CC3)N(Cc3ccc4c(c3)OCO4)C=C2C1=O (centres undefined) | 3.4 | 2.4 | 9.8 | 20.5 | 13.3 | 18.0 | i | -35.1
CC(C)n1c(=S)[nH]c2cc(C(F)(F)F)ccc21 | -23.6 | -0.5 | 3.1 | 2.6 | 4.8 | -9.8 | i | 3.4
C[C@]12CCC3c4ccc(OCC(=O)O)cc4CCC3C1CCC2=O (some centres undefined) | -9.8 | 7.4 | 0.3 | 0.4 | 3.4 | -13.5 | i | 6.6
CSc1nc(C)cc(OCC#N)n1 | -23.9 | -0.7 | 5.1 | -0.7 | -9.7 | 5.6 | i | 3.3
Cc1cccc(C)c1-n1c(C)nn(-c2ncc(C(F)(F)F)cc2Cl)c1=O | 2.9 | -2.5 | -1.6 | -10.1 | -11.1 | -6.4 | i | -9.9
COc1cccc(NC(=O)C2C3C=CC4(O3)C2C(=O)N(CCN2CCCCC2)C4C(=O)NC2CCCCC2C)c1 (centres undefined) | 0.8 | -1.5 | 3.6 | 0.5 | -5.8 | 21.1 | i | -3.4
O=C(Nc1ccc(O)cc1)c1cc2ccccc2c(=O)s1 | -19.5 | -11.7 | -12.8 | 2.0 | 2.6 | 2.9 | i | 7.9
C=CCn1cc(C(=O)N2CCc3ccccc3C2)c(=O)c2cc(S(=O)(=O)N(CC)CC)ccc21 | 7.5 | 3.7 | 0.6 | 9.7 | 0.6 | 10.4 | i | 6.6
Cc1cc2nc(/C(C#N)=C\c3ccc(-c4ccccc4C(=O)O)o3)[nH]c2cc1C | -6.9 | -114.5 | 5.8 | ? | ? | -3.8 | i | -13.4
Cc1onc(-c2ccccc2)c1C(=O)NC(CC(=O)O)c1ccc(OC(C)C)cc1 (centres undefined) | -4.3 | 2.8 | 6.0 | -8.0 | 8.9 | -2.9 | i | nt
COc1ccc(N2CC(C(=O)Nc3ncccc3C)CC2=O)cc1 (centres undefined) | -19.0 | -2.0 | 1.3 | 3.8 | -8.7 | -5.1 | i | nt
O=c1nc(N2CCOCC2)ccn1-c1nc(-c2ccccc2)oc1-c1ccccc1 | -10.9 | -3.9 | -1.4 | -0.3 | -4.3 | -4.9 | i | nt
COC(=O)CSc1nnc(C)n1-c1cccc(C#N)c1 | 1.5 | -2.7 | -1.5 | 2.2 | -0.6 | 7.8 | i | -81.6

Sorted by molecular weight (smallest number first): some entries from above.
SMILES | UUG fidelity | MT1-MMP act inh | MT1-MMP act inh RFP | PABP polyA inh | eIF4H FP inh | CSC inhib | Rce1 inh | Env fusion inh | others
CSc1nc(C)cc(OCC#N)n1 | -23.9 | -0.7 | 5.1 | -0.7 | -9.7 | 5.6 | i | 3.3
Cc1cc2nc(/C(C#N)=C\c3ccc(-c4ccccc4C(=O)O)o3)[nH]c2cc1C | -6.9 | -114.5 | 5.8 | ? | ? | -3.8 | i | -13.4
O=C(COC(=O)c1cccc(S(=O)(=O)N2CCOCC2)c1)NC1CCCCC1 | -8.1 | 2.7 | 4.8 | nt | nt | nt | nt | -8.6
